Mtb H37Rv = Mycobacterium tuberculosis H37Rv growth inhibition, cell based, confirmatory dose response (AID 1949); most inactive calls were filed without a number and no value below 0 was filed; 1.6% of 100,000 active; one-dose inhibition, % at 10 µg/mL; IC50 in µg/mL for titrated hits;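 active means confirmed in a dose series; inconclusive means about 50% or more but not retested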;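 further: bacteria grown 7 days with compound before Alamar blue readout; 0% = untreated bacteria and 100% = reference antibiotic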
Numbers without * were called inactive; i = inactive; ? = inconclusive. The list is partial; the hit share may differ from the screen's.

SMILES	Mtb H37Rv
CCOc1ccc(-c2csc(NC(=O)CCn3c(=O)oc4ccccc43)n2)cc1	1%
COc1cccc(CN2CCN(C(=O)c3cccs3)CC2)c1	i
O=C1c2ccccc2-c2nc3ncnn3c(-c3ccccc3Cl)c21	i
O=C(O)CC1SC(=Nc2cccc(O)c2)NC1=O (stereo not drawn)	i
CCOc1ccc2c(C)c(C)c(=O)oc2c1OCC	7%
COc1ccc(Oc2ccc(NC(=O)c3ccccc3C)cc2)cc1	5%
COc1ccccc1CNc1ccc(O)cc1	i
COc1ccc(-c2cc(-c3cccs3)nc(SCc3ccccn3)c2C#N)cc1	i
Cc1cc(I)cnc1NC(=O)C(Cl)(Cl)Cl	i
Cc1ccc(N(CC(=O)Nc2c(C)cc(C)cc2C)S(C)(=O)=O)cc1	i
Cc1cc(C)c(NC(=O)C(F)(F)F)c(C)c1NC(=O)C(F)(F)F	i
Cc1ccc(NS(=O)(=O)Cc2ccccc2Cl)cc1	1%
CC(=O)Nc1c(-c2ccccc2)nc2c(C)cccn12	i
C=CCSc1nc(N)c(C(=O)Nc2ccccc2C)cc1C(N)=O	8%
CN(C)C(=O)CSc1nc2sc3c(c2c(=O)[nH]1)CCCC3	i
CC(C)(C)c1cc(N/C(=N\S(=O)(=O)c2ccccc2)c2ccc(Cl)cc2)no1	0%
CS(=O)(=O)N(CC(=O)Nc1ccccc1F)c1ccc(I)cc1	i
CCn1nnnc1-c1ccc(OC)c(S(=O)(=O)Nc2cccc(Br)c2)c1	i
COc1ccc(S(=O)(=O)N(CC(=O)Nc2c(C)n(C)n(-c3ccccc3)c2=O)c2ccccc2)cc1OC	i
Cc1ccc(NC(=O)CSc2nc(C(F)(F)F)cc(=O)[nH]2)cc1C	i

The final 6 records of the part above come first, to join the parts:
SMILES	Mtb H37Rv
CN(C)C(=O)CSc1nc2sc3c(c2c(=O)[nH]1)CCCC3	i
CC(C)(C)c1cc(N/C(=N\S(=O)(=O)c2ccccc2)c2ccc(Cl)cc2)no1	0%
CS(=O)(=O)N(CC(=O)Nc1ccccc1F)c1ccc(I)cc1	i
CCn1nnnc1-c1ccc(OC)c(S(=O)(=O)Nc2cccc(Br)c2)c1	i
COc1ccc(S(=O)(=O)N(CC(=O)Nc2c(C)n(C)n(-c3ccccc3)c2=O)c2ccccc2)cc1OC	i
Cc1ccc(NC(=O)CSc2nc(C(F)(F)F)cc(=O)[nH]2)cc1C	i
O=C(COc1ccc2ccccc2c1)N1CCN(c2ccc(F)cc2)CC1	i
CCOc1ccc(C(=O)NC2CCCC2)cc1	i
Nc1nc(CN2CCCCCC2)nc(Nc2ccc(F)cc2)n1	2%
CC(C)C(=O)NC(c1ccc(C(C)C)cc1)c1cc(Cl)c2cccnc2c1O (stereo not drawn)	i
CCCOc1ccc(N2CC(C(=O)Nc3nccs3)CC2=O)cc1 (stereo not drawn)	i
CCc1nnc(NC(=O)c2c(F)c(F)c(F)c(F)c2F)s1	i
COc1ccc(OC)c(NC(=O)CSC2=NCCS2)c1	i
COc1ccc(N2CCN(c3ncnc4sc5c(c34)CCCC5)CC2)cc1	i
CC12CCC(C(=O)NCc3cccnc3)(OC1=O)C2(C)C (stereo not drawn)	i
O=C(CN1C(=O)c2cccc3cccc1c23)Nc1ccc(S(=O)(=O)N2CCCCC2)cc1	i

Arranged by molar mass (low to high): some entries from above
SMILES	Mtb H37Rv
CCOc1ccc(C(=O)NC2CCCC2)cc1	i
CC12CCC(C(=O)NCc3cccnc3)(OC1=O)C2(C)C (stereo not drawn)	i
COc1ccc(OC)c(NC(=O)CSC2=NCCS2)c1	i
Nc1nc(CN2CCCCCC2)nc(Nc2ccc(F)cc2)n1	2%
COc1ccc(N2CCN(c3ncnc4sc5c(c34)CCCC5)CC2)cc1	i
CC(C)C(=O)NC(c1ccc(C(C)C)cc1)c1cc(Cl)c2cccnc2c1O (stereo not drawn)	i
O=C(CN1C(=O)c2cccc3cccc1c23)Nc1ccc(S(=O)(=O)N2CCCCC2)cc1	i

More entries follow.
SMILES	Mtb H37Rv
COc1ccc(C2c3c(oc4cc(C)c(C)cc4c3=O)C(=O)N2Cc2ccccc2Cl)cc1OC (stereo not drawn)	i
O=C(NCc1ccc(F)cc1)Nc1ccc(Cl)c(Cl)c1	i
O=C(CN(c1ccc(F)cc1)S(=O)(=O)c1ccccc1)Nc1cc(C(F)(F)F)ccc1Cl	i
C=CCSc1nnc2n(-c3ccccc3)c(=O)c3c4c(sc3n12)CCCC4	13%
Fc1ccc(-c2csc3ncnc(NCCc4ccccc4)c23)cc1	11%
COc1ccc(S(=O)(=O)NCc2ccco2)c2ccccc12	i
CC1(C)Cc2c(sc3ncn4nc(-c5ccc(Cl)cc5)nc4c23)C(C)(C)N1	22%
CCCOc1ccc(-c2nc3cc(Cl)ccc3c(=O)o2)cc1	39%
NS(=O)(=O)c1ccc(CCNC(=O)CSCc2ccccc2)cc1	i
Cc1cc(C)n(C(=O)COc2ccc(Cl)cc2Br)n1	i
Cc1ccc([N+](=O)[O-])cc1NC(=S)NC(=O)c1cccs1	i
COc1cccc(NC(=O)CSc2nc(N)cc(N)n2)c1	i
CC(C)c1nnc(NC(=O)c2cccc(F)c2)s1	i
CC(=O)Nc1ccc(OCC(=O)Nc2ccc3c(c2)oc2ccccc23)cc1	8%
O=C(Nc1cccc(C(F)(F)F)c1)c1cc([N+](=O)[O-])ccc1N1CCNCC1	i
CCC(=O)Oc1ccc(-c2nc3ccccc3c(=O)o2)cc1	i
COc1ccc(S(=O)(=O)N(C)CC(=O)Nc2ccc(C(N)=O)cc2)cc1C	2%
COC(=O)c1cn(Cc2ccccc2C#N)c2ccccc12	i
O=C(c1ccco1)N1CCN(S(=O)(=O)c2ccc(Cl)s2)CC1	i
COc1cc([N+](=O)[O-])ccc1NC(=S)NC(C)C1CCCO1 (stereo not drawn)	i
O=C(COc1ccccc1)Nc1ccc(S(=O)(=O)N2CCCC2)cc1	i
COC(=O)C12CCC(C)(c3nc4ccccc4nc31)C2(C)C (stereo not drawn)	i
CCC(=O)Nc1cc(C(=O)OCc2ccc(S(=O)(=O)c3ccccc3)cc2)ccc1C	i
c1ccc(CNc2cc(-n3cccn3)nc(-c3ccccc3)n2)cc1	i
O=C(Oc1ccc(Cl)cc1)c1ccc(S(=O)(=O)c2ccc(Cl)cc2)cc1	1µg/mL*
CC(C)(C)CC(C)(C)NC(=O)c1ccccc1I	3%
Cc1n[nH]c(C)c1C(=O)CC1(O)C(=O)N(Cc2ccccc2)c2ccc(Br)cc21 (stereo not drawn)	i
CN(CC(=O)Nc1ccccc1F)S(=O)(=O)c1ccc(Br)cc1	i
Cc1ccc(S(=O)(=O)N(CC(=O)Nc2ccccc2-c2ccccc2)c2ccc(C)cc2C)cc1	5%
CCn1cc(-c2nnc(SCc3nc(-c4ccc(OC)c(OC)c4)no3)n2C)c2ccccc21	3%
COc1ccc(CC(=O)Nc2sc3c(c2C(=O)Nc2ccccc2Cl)CCCC3)cc1	i
CCCCC(=O)Nc1ccc(C(=O)N(CCC#N)CCC#N)cc1	i
Nn1c(SCC(=O)Nc2ccccc2-c2ccccc2)nnc1C1CCCCC1	i
CC(=O)Nc1cccc(NC(=O)c2sc3ccccc3c2Cl)c1	18%
O=C(CSc1ccccn1)Nc1ccc(Br)cn1	i
CCN(c1ccccc1)S(=O)(=O)c1ccc(NC(=O)COc2ccc(C(C)C)cc2)cc1	4%
COCc1c(Br)c(C)nc(N2CCOCC2)c1C#N	0%
CCCc1cc2c(=O)c(-c3nc4ccccc4s3)c(C(F)(F)F)oc2c(CN(C)C)c1O	i
C=CCn1c(=N)c(C#N)cc2c(=O)n3ccccc3nc21	i
O=C(Nc1nnc(COc2ccccc2)s1)C1c2ccccc2Oc2ccccc21	4%
CCOC(=O)c1ccc(NC(=O)CCCOc2ccccc2C)cc1	5%
Cc1ccc(NS(=O)(=O)c2ccc(NS(=O)(=O)c3ccccc3)cc2)cc1Cl	i
CCOc1ccc(NC(=O)CN(C)S(=O)(=O)c2c(C)cc(C)cc2C)cc1	i
Cc1cccnc1NC(=S)NCc1ccco1	i
O=C(Nc1nc(-c2ccc(S(=O)(=O)N3CCCCCC3)cc2)cs1)c1ccccc1	i
CC(=O)c1cccc(NC(=O)c2ccc3ccccc3c2)c1	i
Cc1c(C(=O)Nc2cccc(N(C)S(C)(=O)=O)c2)cccc1[N+](=O)[O-]	i
CCN(CC)S(=O)(=O)c1ccc(NC(=O)c2ccccc2OC)cc1	3%
CCOC(=O)c1cccc(NC(=O)CCC2CCCCC2)c1	?
O=c1[nH]c(N2CCN(Cc3ccccc3)CC2)nc2c1CCC2	0%
New compounds follow:
SMILES	Mtb H37Rv
COc1cc(C(=O)NC(NC(=S)Nc2cccc(C)c2)C(Cl)(Cl)Cl)cc(OC)c1OC (stereo not drawn)	i
CC(C)Oc1ccc(CCN)cc1Cl	i
COc1cc(Cl)c(C)cc1NC(=O)c1ccccc1Cl	35%
CCNC(=O)c1c(NC(=O)c2ccc([N+](=O)[O-])cc2)sc2c1CCCC2	1%
CC(=O)Oc1ccc(C(=O)O/N=C(\N)c2ccccc2)cc1	9%
Cc1cc(Br)ccc1OCCN1CCN(C)CC1	7%
CC(C)(C)NCCCOc1ccccc1Cl	i
CCOc1cccc(OCCOCCOc2ccc(Cl)cc2Br)c1	3%
c1ccc(CCc2nn3c(Cn4cnc5ccccc54)nnc3s2)cc1	0%
CCOC(=O)CS(=O)(=O)c1ccc2ccccc2c1	8%
CCOC(=O)c1ccccc1NC(=O)COc1ccccc1C	14%
Cc1ccc(S(=O)(=O)NCC(=O)Nc2ccc(F)c(Cl)c2)cc1	i
O=C1CC(c2ccccc2)Sc2nc(C34CC5CC(CC(C5)C3)C4)nn21 (stereo not drawn)	i
CCc1ccccc1N(CC(=O)Nc1ccc(S(=O)(=O)N2CCCCCC2)cc1)S(C)(=O)=O	i
O=[N+]([O-])c1ccc(NCCNc2nc(N3CCCC3)nc3ccccc23)cc1	1.1µg/mL*
CCCNC(=S)Nc1cccc(OC)c1	i
Cc1cccc(NS(=O)(=O)c2cc(C)ccc2C)c1	11%
CCCc1cc(=O)oc2cc(C)cc(OCC(=O)c3ccc(F)cc3)c12	2%
Cc1cccc(NC2=C(Cl)C(=O)N(c3cccc(Cl)c3)C2=O)c1C	2%
COCCN1C(=O)C(O)=C(C(=O)c2cc3ccccc3o2)C1c1ccc(Cl)c(Cl)c1 (stereo not drawn)	i
Cc1cccc(C)c1OCC(=O)Nc1ccccc1C(C)C	i
O=C(Nc1cccc2ccccc12)C1CCN(C(=O)c2ccc(Cl)cc2)CC1	i
O=C(Nc1ccc(NC(=O)C23CC4CC(CC(C4)C2)C3)cc1)c1cc(F)c(F)cc1Cl	i
COc1ccc(S(=O)(=O)N(CC(=O)Nc2ccc(F)cc2F)c2ccc(C)cc2)cc1OC	i
O=C1CC(c2ccccc2Cl)CC2=C1C(c1ccc(O)cc1)Nc1ccccc1N2 (stereo not drawn)	i
CCC(=O)Nc1ccc(Cl)c(NC(=S)NC(=O)COc2ccc(Cl)cc2)c1	2%
NC(CC(=O)O)c1ccccc1 (stereo not drawn)	i
CC(C)c1ccc(NC(=O)CSc2nnc(CNC(=O)c3ccccc3)n2C)cc1	i
NC(=O)c1cn(-c2ccccc2)nc1-c1cc2ccccc2oc1=O	i
O=S(=O)(c1ccc(-c2csc(-c3cccnc3)n2)cc1)N1CCOCC1	i
COc1cccc(C2C3=C(CCCC3=O)NC3=C2C(=O)CCC3)c1OCc1ccccc1	i
Cc1cc(C)nc(NC(=O)Nc2cccc([N+](=O)[O-])c2)c1	i
COc1cc(CNC2CCCCC2)cc(Cl)c1OCC(N)=O	i
COc1ccc(C(=O)COc2cc(C)cc3oc(=O)c(Cc4ccccc4)c(C)c23)cc1	i
Cc1cc(C)nc(/N=C(\NC(=O)c2ccc(Cl)c(Cl)c2)Nc2ccccc2)n1	i
O=C(COc1ccc(Br)cc1)Nc1ccc(-c2nnc(-c3ccco3)o2)cc1	i
COc1ccc(NC(=O)C(=O)NCC2CCCO2)cc1 (stereo not drawn)	i
COc1cc([N+](=O)[O-])ccc1NC(=S)NCCc1ccc(F)cc1	0%
NC(=O)c1sc2c(c1N)C(c1ccccc1)CC(=O)N2 (stereo not drawn)	i
O=C(NC1CCCC1)c1ccc(Cl)c(Cl)c1	i
CCNS(=O)(=O)c1cc(C)c(OC)cc1C	i
Cc1cc(Br)ccc1OCC(=O)Nc1ccc(S(=O)(=O)N2CCOCC2)cc1	0%
CCOc1cc(/C=N/Nc2nc(-c3ccc(Br)cc3)cs2)ccc1O	?
O=c1nc2sc3c(c2c(NCc2ccccc2)[nH]1)CCCC3	i
O=C(/C=C/c1ccccc1)Nc1ncc(Cc2ccccc2Cl)s1	0%
CN(C)C(=O)CSc1nnnn1-c1ccccc1	4%
CCC(C)N1CCN(C(=O)c2ccc([N+](=O)[O-])cc2)CC1 (stereo not drawn)	i
CN1CCN(CCOc2ccc(Cl)cc2C(C)(C)C)CC1	i
COc1ccc(C2C(Oc3ccccc3)C(=O)N2c2ccc(C)c(C)c2)cc1OC (stereo not drawn)	1%
CN1CC2CCCC3(C1)C(=O)NC1(CCCCC1)N=C23 (stereo not drawn)	i
Next part
SMILES	Mtb H37Rv
Cc1cc(C(=O)NC(C)c2ccc(C)c(C)c2)no1 (stereo not drawn)	i
COc1ccc(NC(=O)C2CCCNC2)cc1OCC(C)C (stereo not drawn)	i
Cc1cc2c(nc3s/c(=C\c4ccc(-c5ccc(F)cc5)o4)c(=O)n32)c(Br)c1C	2%
O=C(Nc1ccc(F)cc1)N1CC2CC(C1)c1cccc(=O)n1C2 (stereo not drawn)	i
CCOc1ccccc1NC(=O)c1c(NC(=O)c2ccccc2Cl)sc2c1CCCCC2	i
COC(=O)C1CCN(C(=O)c2cc(Cl)ccc2OC)CC1	i
CSc1ccccc1NC(=S)Nc1cccc(C(C)=O)c1	i
Cc1cc(=O)[nH]c(SCC(=O)Nc2cc([N+](=O)[O-])ccc2C)n1	i
COc1cc(/C=C/C(=O)O)cc(S(=O)(=O)N2CCc3ccccc3C2)c1OC	i
CCN1C(=O)NC(c2cc(C)ccc2C)C(C(=O)OC)=C1C (stereo not drawn)	i
O=C(c1cccc(Br)c1)N1CCN(S(=O)(=O)c2ccc(Cl)cc2)CC1	i
